Screens: PubChem BioAssay, National Center for Advancing Translational Sciences (NCATS)
AmpC inh no det – blocks E. coli AmpC beta-lactamase in absence of detergent; AmpC nitrocefin hydrolysis, absorbance 480 nm, no detergent; potencies from a single point are estimates; hit rate 1.8% among 71,000; Potency, µM (series often up to 28.7 µM), inactives show at the highest dose activity change, negative = inhibition; P00811; active = falling curve, for most hits resting on a single point; inconclusive = weak or doubtful change; inactive = flat or rising curve; also: % of control where 0% means no effect; about half of the hits show no inhibition at the top dose; a quarter of the inactives give rising signals
Target sequence (P00811 whole entry, looked up): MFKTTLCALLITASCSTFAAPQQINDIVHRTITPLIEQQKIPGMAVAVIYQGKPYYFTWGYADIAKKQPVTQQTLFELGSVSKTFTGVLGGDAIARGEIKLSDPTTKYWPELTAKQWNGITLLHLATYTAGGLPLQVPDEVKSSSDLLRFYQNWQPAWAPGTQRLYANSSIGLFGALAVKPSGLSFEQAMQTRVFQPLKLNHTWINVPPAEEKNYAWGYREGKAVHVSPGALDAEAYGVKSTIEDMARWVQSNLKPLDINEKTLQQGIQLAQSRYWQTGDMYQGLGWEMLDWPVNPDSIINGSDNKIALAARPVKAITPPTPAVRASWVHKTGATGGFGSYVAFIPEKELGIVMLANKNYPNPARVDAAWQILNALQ
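Enzyme, pH 7.0 phosphate. Compound titrations were pre-incubated with AmpC for 15 min at room temperature before nitrocefin (stock 800 uM) addition; product formation was recorded at 480 nm every 20 s for 4 min.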
Starred values were filed as active, the others as inactive; [ ] = remark or other dose. Potency is read from the fitted curve at half-maximal effect. This is a subset, so the mix of outcomes need not match the whole.

For COc1ccccc1N/C(N)=N/c1nc(CSc2ccc(C)cc2)cc(=O)[nH]1 the results were AmpC inh no det 30%.
CC(C)CC(=O)Nc1nnn(C)n1 was read as AmpC inh no det 0%.
Nc1[nH]nc2nc3ccccc3nc12 was read as AmpC inh no det 0%.
For CCCN(CCC)CCCNC(=O)CC1Nc2ccccc2NC1=O (stereo not drawn) the results were AmpC inh no det -12%.
CCCNC(=O)c1c[nH]c2ccc(S(=O)(=O)N(C)c3ccc(OCC)cc3)cc2c1=O was read as AmpC inh no det 101%.
`O=C(NCC(c1cccnc1)N1CCN(c2ccccc2F)CC1)C1CCCCC1` (stereo not drawn) gave AmpC inh no det 52%.
O=C1CC(c2ccc(S(=O)(=O)NCc3ccncc3)cc2)CN1 (stereo not drawn) was read as AmpC inh no det 4µM*[single pt active].
Screening O=C(c1ccc(Cl)cc1)C12CN3CN(CN(C3)C1)C2 returned AmpC inh no det 1%.
O=C(NCCS(=O)CCNC(=O)C(F)(F)F)C(F)(F)F was read as AmpC inh no det -4%.
`Cc1cccc2c(=O)cc(C)n(CC(=O)N3CCCCC3)c12` gave AmpC inh no det 36%.
Screening CCCC(=O)Nc1nnc(CC(=O)N2CCCC2)s1 returned AmpC inh no det 10%.
CCCCN(c1ccccc1)c1ncnc2c1cnn2C was read as AmpC inh no det 35%[5.75 µM].

Gathered by group: the compounds so far containing an NH in an aromatic ring.
For COc1ccccc1N/C(N)=N/c1nc(CSc2ccc(C)cc2)cc(=O)[nH]1 the results were AmpC inh no det 30%.
Nc1[nH]nc2nc3ccccc3nc12 was read as AmpC inh no det 0%.
CCCNC(=O)c1c[nH]c2ccc(S(=O)(=O)N(C)c3ccc(OCC)cc3)cc2c1=O was read as AmpC inh no det 101%.

7 entries picked at random from the list so far:
`Cc1cccc2c(=O)cc(C)n(CC(=O)N3CCCCC3)c12` gave AmpC inh no det 36%.
CC(C)CC(=O)Nc1nnn(C)n1 was read as AmpC inh no det 0%.
Screening O=C(c1ccc(Cl)cc1)C12CN3CN(CN(C3)C1)C2 returned AmpC inh no det 1%.
Screening CCCC(=O)Nc1nnc(CC(=O)N2CCCC2)s1 returned AmpC inh no det 10%.
For CCCN(CCC)CCCNC(=O)CC1Nc2ccccc2NC1=O (stereo not drawn) the results were AmpC inh no det -12%.
Nc1[nH]nc2nc3ccccc3nc12 was read as AmpC inh no det 0%.
O=C1CC(c2ccc(S(=O)(=O)NCc3ccncc3)cc2)CN1 (stereo not drawn) was read as AmpC inh no det 4µM*[single pt active].

Later entries
O=C(O)c1ccccc1-c1ccccc1C(=O)Nc1ccc2c(c1)Cc1cc(F)ccc1-2 was read as AmpC inh no det -8%[5.75 µM].
`Cc1ccc(S(=O)(=O)NC2=NCN(CCc3ccccc3)CN2)cc1` gave AmpC inh no det 5%.
Screening COc1ccccc1-n1cnc2cc(NC(C)=O)ccc21 returned AmpC inh no det 2%.
Screening Cc1c(C)[n+](=O)c2c(n1[O-])CCCCC2 returned AmpC inh no det -1%.
Cc1ccc(Cl)c(OCC(=O)Nc2ccc3c(c2)OCCO3)c1 was read as AmpC inh no det 7%.
Screening Cc1ccc2cc3c(NC(=O)c4ccco4)nn(CC(C)C)c3nc2c1 returned AmpC inh no det -1%.
For COc1ccc(CNC(=O)NC2CCCCC2)cc1 the results were AmpC inh no det -10%.
For CCOc1ccc(C(=O)NCC(=O)OC(C)C(=O)NCc2ccco2)cc1OCC (stereo not drawn) the results were AmpC inh no det 17%.
`O=C(CC(C(=O)O)C1CCCO1)NCCc1ccc2c(c1)OCO2` (stereo not drawn) gave AmpC inh no det 2%.
`Cc1nc2scc(-c3cccs3)c2c(=O)o1` gave AmpC inh no det -8%.
Cn1c2ccccc2c2c(C(=O)N3CCN(c4ccc(F)cc4)CC3)cn(C3CCCC3)c(=O)c21 was read as AmpC inh no det 62%.
Cc1ccc(-n2ncc3c(=O)n(CC(=O)N4CCCCCC4)cnc32)cc1 was read as AmpC inh no det 16%.
Screening CCOC(=O)Cc1nnc(NC(=O)c2ncn[nH]2)s1 returned AmpC inh no det -2%.
For C=CCOC(=O)COc1ccc2c(C)c(C)c(=O)oc2c1 the results were AmpC inh no det 9%.
Screening CC(Oc1ccccc1)C(=O)N1CCCc2ccccc21 (stereo not drawn) returned AmpC inh no det 6%.
`O=C(Nc1ccc2c(c1)OCO2)C1CC(c2ccccc2Cl)=NO1` (stereo not drawn) gave AmpC inh no det -7%.
For CCc1c(O)nc(SCC(N)=O)n(-c2ccccc2F)c1=O the results were AmpC inh no det 23%.
Screening Cc1cc(C)c(C#N)c(N2CCCC2)n1 returned AmpC inh no det 9%.
CCCCN(C)C(=O)c1c[nH]c2ccc(S(=O)(=O)N3CCOCC3)cc2c1=O was read as AmpC inh no det 13%.
`COc1cc(C2=NOC(C(=O)N3CCCc4ccccc43)C2)cc(OC)c1OC` (stereo not drawn) gave AmpC inh no det 113%.
For COc1ccccc1N1CCN(C(=O)CSc2nc(-c3ccco3)cc(C(F)(F)F)n2)CC1 the results were AmpC inh no det 126%.
COc1ccc(-n2c(=O)c(-c3cccc(F)c3)nc3cncnc32)cc1 was read as AmpC inh no det 18%.
Screening CC(C)(O)/C=C1/Oc2ccccc2C1N1CCCCC1 (stereo not drawn) returned AmpC inh no det -18%.
C/C=C/CSc1nc2c(c(=O)[nH]c(=O)n2C)n1CCC was read as AmpC inh no det 4%.

A section from the list above, as a working copy:
For COc1ccccc1N1CCN(C(=O)CSc2nc(-c3ccco3)cc(C(F)(F)F)n2)CC1 the results were AmpC inh no det 126%.
COc1ccc(-n2c(=O)c(-c3cccc(F)c3)nc3cncnc32)cc1 was read as AmpC inh no det 18%.
Screening CC(C)(O)/C=C1/Oc2ccccc2C1N1CCCCC1 (stereo not drawn) returned AmpC inh no det -18%.
C/C=C/CSc1nc2c(c(=O)[nH]c(=O)n2C)n1CCC was read as AmpC inh no det 4%.

(listing goes on)
For Cc1cc(NC(=O)CCC(=O)N(CCc2ccccc2)C(C(=O)NC2CCCC2)c2ccco2)no1 (stereo not drawn) the results were AmpC inh no det 34%.
For O[C@@H]1CC[C@H]2Cc3ccccc3N=C21 the results were AmpC inh no det -5%.
For CC1(C)CC(=O)C(C=NC(CCC(N)=O)C(=O)O)=C(O)C1 (stereo not drawn) the results were AmpC inh no det -3%.
`CCCCC(=O)Nc1cc(C)c2c(=O)oc3ccccc3c2n1` gave AmpC inh no det 3%.
`O=C(c1ccc(OCC2CCCO2)cc1)N1CCN(c2ccccc2)CC1` (stereo not drawn) gave AmpC inh no det 75%.
`Cc1ccc(NCc2nnc(SCC(=O)NCc3ccco3)n2CC2CCCO2)c(C)c1` (stereo not drawn) gave AmpC inh no det 99%.
For C[C@H](Br)C(=O)Nc1ccc(C(=O)O)c(O)c1 the results were AmpC inh no det -14%[5.75 µM].
Screening CCOC(=O)C1C(=O)NC(SCC(N)=O)=C(C#N)C1c1ccccc1OCC (stereo not drawn) returned AmpC inh no det 4%.
Cc1ccc(C)c(NC(=O)CSc2n[nH]c(-c3ccncc3)n2)c1 was read as AmpC inh no det 8%.
`CN(C)c1ncc2ncc(=O)n(Cc3ccc(F)cc3)c2n1` gave AmpC inh no det 53%.
`C=CCn1c(SCC(=O)NC2CCCCC2)nnc1-c1sc(N)nc1C` gave AmpC inh no det 14%.
For CCn1c(SCC(=O)N2CCOCC2)nc(O)cc1=O the results were AmpC inh no det 4µM*[single pt active].
`O=C(Cn1c(=O)n(Cc2ccco2)c(=O)c2cc(Cl)ccc21)NCC1CCCO1` (stereo not drawn) gave AmpC inh no det 27%.
`N#CC1=C(N)Oc2cc(N)ccc2C1C1CCCCC1` (stereo not drawn) gave AmpC inh no det 85%.
For COc1cc(-c2nc(-c3ccc(C)nc3OC)no2)cc(OC)c1OC the results were AmpC inh no det 2%.
O=C(Nc1ccc(-c2nc3ccccc3o2)c(O)c1)c1cc(-n2cnnc2)ccc1Cl was read as AmpC inh no det 45%.
NC(=O)C1CCN(C(=O)CSc2ccccn2)CC1 was read as AmpC inh no det 7%.
For COc1ccccc1NC(=O)C1=C(C)NC(=O)NC1c1ccccc1F (stereo not drawn) the results were AmpC inh no det -5%.
For O=C(Nc1nc(-c2nc3ccccc3s2)cs1)c1ccco1 the results were AmpC inh no det 6%.
`Cc1ccccc1Cn1ccc(NC(=O)CCSc2nc(-c3ccco3)cc(C(F)(F)F)n2)n1` gave AmpC inh no det -13%.
Screening COc1ccc(OC)c(S(=O)(=O)N(C)CC(=O)O)c1 returned AmpC inh no det -6%.
CCOc1ccccc1NC(=O)c1cccc2c1C(=O)N(CCOC)C2 was read as AmpC inh no det 46%.
Screening COCCN1Cc2c(sc(C)c2C)N(C(=O)c2ccccc2)C1 returned AmpC inh no det 2%.
CN(CC(=O)Nc1ccc(F)c(F)c1F)c1cnccn1 was read as AmpC inh no det -3%.
`C=CCNc1nc(-c2sc(NC(C)=O)nc2C)cs1` gave AmpC inh no det -10%.
Screening O=C(C1CC1)N1CCc2cc(Br)cc(S(=O)(=O)NCCCN3CCCC3)c21 returned AmpC inh no det 12%.
`Cc1cccc(OCCn2c(NC(=O)c3ccco3)nc3ccccc32)c1` gave AmpC inh no det 20%.
Cc1nn(-c2ccccc2)c2[nH]c(=O)c(CNc3ccc(N4CCOCC4)cc3)cc12 was read as AmpC inh no det 72%.
CCN1CCN(CCC(=O)Nc2ccccc2OC)CC1 was read as AmpC inh no det -3%.
`CCOc1ccc(N2C(=O)CC(Sc3nccc(C)n3)C2=O)cc1` (stereo not drawn) gave AmpC inh no det 9%.
For CCc1ccc(NC(=O)c2cnc3scc(C)n3c2=O)cc1 the results were AmpC inh no det 16%.
CCOC(=O)c1cc2sc(C)cc2n1CC(=O)N1CCOCC1 was read as AmpC inh no det 29%.
For Cc1ccc(O)c(NC(=O)COc2cc(C)ccc2C)c1 the results were AmpC inh no det inconclusive.
`O=C(c1cccn2c(=O)c3ccc(Cl)cc3nc12)N1CCN(Cc2ccc3c(c2)OCO3)CC1` gave AmpC inh no det 145%.
`CCCCN(C)CCCNC(=O)Cn1c(=O)sc2ccccc21` gave AmpC inh no det -13%.
Cc1csc2ncc(C(=O)NC(C)c3ccccc3)c(=O)n12 (stereo not drawn) was read as AmpC inh no det 32%.
Screening COc1cccc(-n2nnnc2SCC(=O)Nc2cccc(C)n2)c1 returned AmpC inh no det -3%.
Screening CCC1CCCCN1C(=O)C1CC(c2cc(Cl)c(OC)cc2OC)=NO1 (stereo not drawn) returned AmpC inh no det 110%.
For C=CCc1cccc2cc(C(=O)NC)c(=O)oc12 the results were AmpC inh no det 22%.
Screening O=S(=O)(c1ccccc1C(F)(F)F)N1CCOCC1 returned AmpC inh no det 10%.
`NCC1CCC(C(=O)O)CC1` (stereo not drawn) gave AmpC inh no det -5%[12.8 µM].
CC(=O)C1C(c2cccc(Oc3ccccc3)c2)NC(=O)NC1(O)C(F)(F)F (stereo not drawn) was read as AmpC inh no det 28%.
`O=C(Cn1nnc(-c2ccccc2NC(=O)C2CC2)n1)NC1CCCCC1` gave AmpC inh no det -5%.
Cc1cccc(C2CC(c3ccccc3)Nc3ncnn32)c1 (stereo not drawn) was read as AmpC inh no det 4µM*[single pt active].
CCC(C(=O)Nc1cc(C)nn1-c1nc(C)cc(C)n1)c1ccccc1 (stereo not drawn) was read as AmpC inh no det 131%.
Screening Cc1cc2n(c1)CCn1c(C)ccc1-2 returned AmpC inh no det 96%.
For COc1ccccc1N1CCN(C[C@@H](O)COc2cccc3ccccc23)CC1 the results were AmpC inh no det 20%.
Screening Nc1c(C(=O)N2CCCCC2)sc(=S)n1-c1ccccc1 returned AmpC inh no det 14%.
`Nc1nc2ccc(OC(F)(F)F)cc2s1` gave AmpC inh no det 12%.
Screening O=C(Nc1cccc(F)c1)NC1CC2CCCC(C1)N2C1CC1 (stereo not drawn) returned AmpC inh no det 8%.
Screening CCC(=O)NCCCOc1ccccc1 returned AmpC inh no det -4%.
Screening O=C(OCCN=C1NS(=O)(=O)c2ccccc21)c1cccnc1 returned AmpC inh no det -3%.
Screening Cc1nc(C(C)(C)O)n(-c2ccccc2)n1 returned AmpC inh no det 12%.
`COc1ccccc1NS(=O)(=O)c1ccc(Cl)cc1` gave AmpC inh no det -6%.
For COc1ccccc1Nc1nc(N)nc(CSc2nccc(C)n2)n1 the results were AmpC inh no det 12%.
For CCOC(=O)c1cncn1[C@@H](C)c1ccccc1 the results were AmpC inh no det 6%[12.8 µM].
Cc1cc(NC(=O)COc2nnc(-c3ccccc3)c3ccccc23)no1 was read as AmpC inh no det 9%.
CC(C)Nc1nc2n(c(=O)n1)CCN2C(C)C was read as AmpC inh no det -8%.
`COC(=O)c1ccc(CSc2nnc3n(Cc4ccccc4OC)c(=O)c4ccccc4n23)o1` gave AmpC inh no det 60%.
Screening CCOC(=O)c1c(C)c(C(=O)NCc2ccco2)c(C)n1Cc1ccccc1 returned AmpC inh no det 17%.
Screening CC(C)OC(=O)CN1CCN(S(=O)(=O)c2cc(Cl)ccc2Cl)CC1 returned AmpC inh no det 51%.
`Cc1ccc(S(=O)(=O)NC(=O)NN2C[C@H]3CCC[C@@H]3C2)cc1` gave AmpC inh no det 0%[12.8 µM].
For CCc1nnc(NC(=O)CSc2nnc3c4ccccc4n(C)c3n2)s1 the results were AmpC inh no det 88%.
COc1ccccc1N1CCN(C(=O)c2cc(-c3cccc(Cl)c3)on2)CC1 was read as AmpC inh no det 73%.
For CCOC(=O)c1sc2ncnc(OC)c2c1C the results were AmpC inh no det 3%.
For Cc1cccc(Nc2nc(NCc3ccco3)nc(N3CCOCC3)n2)c1 the results were AmpC inh no det 55%.
`Cc1cc(N=Cc2c(CO)cnc(C)c2O)c(N=Cc2c(CO)cnc(C)c2O)cc1C.[Zn]` gave AmpC inh no det -4%[5.75 µM].
`Cc1ccccc1C(C(=O)NCc1ccco1)N(CC1CCCO1)C(=O)Cn1nnc2ccccc21` (stereo not drawn) gave AmpC inh no det 48%.
For CC(=O)N1CCCc2cc(S(=O)(=O)N3CCN(C4CCCCC4)CC3)ccc21 the results were AmpC inh no det 39%.
